# High-throughput results (PubChem)
# VDR inhibitor: inhibitors of human vitamin D receptor; VDR-SRC2-3 peptide fluorescence polarization, 2 h; Potency, µM, inactives show max response, negative = inhibition, usual class: inhibitors; actives 0.93% (n = 400,000); active means well fitted inhibition curve with a large enough effect; inconclusive means small, poorly fitted or top-dose-only effect, or another doubt; inactive means no such curve, though single readings can be large or run the other way; further: series mostly up to about 120 µM
# Target sequence (P11473 whole entry, looked up): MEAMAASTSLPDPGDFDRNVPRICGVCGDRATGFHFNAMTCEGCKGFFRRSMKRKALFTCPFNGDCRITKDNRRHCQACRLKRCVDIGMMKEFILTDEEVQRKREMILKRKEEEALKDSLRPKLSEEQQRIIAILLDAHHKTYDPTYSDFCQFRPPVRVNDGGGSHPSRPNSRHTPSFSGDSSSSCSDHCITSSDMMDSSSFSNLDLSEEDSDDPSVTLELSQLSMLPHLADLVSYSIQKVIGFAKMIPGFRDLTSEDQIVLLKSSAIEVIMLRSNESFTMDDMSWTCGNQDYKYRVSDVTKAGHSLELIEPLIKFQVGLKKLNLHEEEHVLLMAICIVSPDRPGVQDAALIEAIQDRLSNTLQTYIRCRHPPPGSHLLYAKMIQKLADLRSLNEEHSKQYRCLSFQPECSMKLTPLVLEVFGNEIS
#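 Fluorescence polarization assay of small-molecule disruption of VDR binding to coregulator peptide SRC2-3. Compounds and controls pin-transferred, then read after 2 h incubation at ambient room temperature.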
# An asterisk follows results filed as active; ? = inconclusive; & = joins results of further samples; [ ] = remark or other dose. On the % scale 0 is the no-effect control and ±100 the full control effect; potency means the concentration at half of the fitted maximal effect. Not all compounds are listed. The share of hits here may be higher or lower than overall.
SMILES,VDR inhibitor
O=C(c1ccccc1[N+](=O)[O-])N1CCC(Cc2ccccc2)CC1,-0.2%
CS(=O)(=O)Nc1ccc(-c2n[nH]c(=S)n2-c2ccccc2)cc1,1.4%
O=S(=O)(NCc1ccco1)c1ccc2ccccc2c1,-0.9%
CCC1CN(C(=O)N2CCC(C(=O)NCCc3ccccc3)CC2)c2ccccc2O1 (stereo not given),3.7%
Cc1ccc(-n2[nH]c(C)c(/C=C3/C=Nc4ccccc43)c2=O)cc1C,0.1%
CN(CC(=O)Nc1cc(S(=O)(=O)N2CCCCCC2)ccc1Cl)Cc1ccc2c(c1)OCO2,-11.1%
COc1ccc(NC(=O)c2ccc(COc3ccccc3)o2)cc1,?
CC(=O)c1ccc(NC(=O)COc2ccccc2C(=O)Nc2ccccc2)cc1,-6.1%
Cc1cccc(NC(=S)NNC(=O)c2nn(C)cc2Cl)c1,-8.2%
COc1ccc(C(=O)N/C(=C\c2ccco2)C(=O)NC2CCS(=O)(=O)C2)cc1 (stereo not given),10.5%
O=C(Nc1sc2c(c1C(=O)O)CCC2)c1cccs1,-8.4%
CCOc1ccc(CCNC(=O)Cn2ccc3cc(S(=O)(=O)N4CCCC4)ccc32)cc1,2.3%
CC(C)C1Nc2ccc(C(=O)O)cc2C2C=CCC21 (stereo not given),?
COC(=O)[C@]1(Cc2ccccc2)N[C@H](CN(C)C(=O)Nc2ccc(F)cc2)[C@@H]2C(=O)N(Cc3ccccc3)C(=O)[C@@H]21,-22.2%
Cc1nc(-c2cccc(F)c2)sc1CCNC(=O)C(=O)Nc1ccc2c(c1)OCCO2,0.6%
CC(=O)NCCNc1nc(-c2cccnc2)nc2ccccc12,-22.2%
CS(=O)(=O)Nc1cccc(C2=NN(S(C)(=O)=O)C(c3ccccc3)C2)c1 (stereo not given),-13.2%
Cc1ccc(S(=O)(=O)NC(C)C(=O)Nc2ccc(C(N)=O)cc2)cc1 (stereo not given),-16.5%
CCCCN(C(=O)CC1CCCCC1)c1c(N)n(CC(C)C)c(=O)[nH]c1=O,-3.9%
COc1ccc(N2CCN(CCCNC(=O)c3cc(Nc4ccccc4OC)nc4ccccc34)CC2)cc1,6.0%
CCOC(=O)C(C)Sc1nc2c(c(=O)[nH]c(=O)n2C)n1CCc1ccccc1 (stereo not given),-4.4%
CCOC(=O)CSc1nnc(CNc2cccc(Cl)c2)n1-c1ccccc1,-9.4%
Cc1ccc2oc(=O)c3cnn(CC(=O)Nc4cccc(C(F)(F)F)c4)c3c2c1,-16.7%
Cc1ccc(NC(=O)Cn2nnc(C(=O)Nc3ccc(C)c(C)c3)c2N)cc1,0.2%
O=C(NCc1ccc2c(c1)CCN2C(=O)c1ccccc1)c1ccccc1,1.3%
CC(OC(=O)CCN=C1NS(=O)(=O)c2ccccc21)C(=O)Nc1ccc(F)cc1Cl (stereo not given),0.0%
COc1ccccc1OCCOc1ccc(C(=O)c2ccccc2)cc1,-8.7%
CC(=O)/C=C\c1ccc(OC(=O)c2cccnc2)cc1,-22.9%
COc1ccc(NC(=O)CN(c2ccccc2)S(=O)(=O)N(C)C)cc1Cl,-3.0%
CCOC(=O)Cc1cc(=O)n2[nH]c(C)c(-c3ccc(OC)cc3)c2n1,43.8%[activator]
O=c1oc2ccccc2c2c1ncn2-c1ccccc1,-11.4%
COc1cc2c(cc1OC)C(COc1ccc(F)cc1)N(C(=O)Cc1ccccc1)CC2 (stereo not given),10.0%
CC(=O)Nc1nc2ccc(NC(=O)c3ccco3)cc2s1,-2.3%
Oc1c(C(c2ccccc2)N2CCCCC2)sc2ncnn12 (stereo not given),-12.1%
Cc1ccccc1-n1c(C)cc(/C=C2/C(=N)N3C(c4ccccc4)=CSC3=NC2=O)c1C,4.5%
COc1cc2c(cc1NC(=O)COC(=O)[C@@H](NS(=O)(=O)c1cccc(Cl)c1)C(C)C)oc1ccccc12,-4.1%
Cc1ccc(CNC(=O)C2CCN(S(=O)(=O)c3ccc4c(c3)oc(=O)n4C)CC2)cc1,-12.4%
CC1=C(C(=O)Nc2cccc(C)c2C)C2(CCCCC2)OC1=O,1.6%
Cc1cc(C)n2c(Nc3ccc(C(C)C)cc3)c(-c3ccsc3)nc2n1,-2.7%
CCc1cc2c(=O)n(CC(=O)NC3CCCCC3)cnc2s1,-9.0%
CCOCCCNC(=O)C1CCN(S(=O)(=O)c2ccc3nc4c(c(C(=O)O)c3c2)CCCCC4)CC1,-4.9%
COCCNC(=O)/C(C#N)=C/c1ccc(-c2ccc(OC)cc2[N+](=O)[O-])o1,1.3%
CC(=O)Nc1cc(C)ns1,-13.6%
CN(C)S(=O)(=O)c1cccc(C(=O)OCC(=O)NC2CCCc3ccccc32)c1 (stereo not given),-10.7%
COc1ccc(CCNC(=O)c2ccc(N(C)S(=O)(=O)c3ccc(C)cc3)cc2)cc1,-5.4%

# 7 compounds picked at random from those above, as already listed:
SMILES,VDR inhibitor
COc1cc2c(cc1OC)C(COc1ccc(F)cc1)N(C(=O)Cc1ccccc1)CC2 (stereo not given),10.0%
Cc1ccc(CNC(=O)C2CCN(S(=O)(=O)c3ccc4c(c3)oc(=O)n4C)CC2)cc1,-12.4%
COCCNC(=O)/C(C#N)=C/c1ccc(-c2ccc(OC)cc2[N+](=O)[O-])o1,1.3%
Oc1c(C(c2ccccc2)N2CCCCC2)sc2ncnn12 (stereo not given),-12.1%
CC(=O)Nc1nc2ccc(NC(=O)c3ccco3)cc2s1,-2.3%
Cc1cc(C)n2c(Nc3ccc(C(C)C)cc3)c(-c3ccsc3)nc2n1,-2.7%
CCOCCCNC(=O)C1CCN(S(=O)(=O)c2ccc3nc4c(c(C(=O)O)c3c2)CCCCC4)CC1,-4.9%

# Other entries follow.
SMILES,VDR inhibitor
Cc1c(O)ccc(C(=O)COc2ccccc2F)c1O,11.1%
Cc1cccc(NC(=O)c2cc3c(s2)-c2c(C)cccc2OC3)n1,-12.8%
CSCCC1NC2(C(=O)Nc3c2ccc(Cl)c3C)[C@@H]2C(=O)N(C3CCCC3)C(=O)[C@H]12 (stereo not given in full),3.9%
CCCCCOC(=O)Nc1ccc(S(=O)(=O)Nn2cnnc2)cc1,-10.8%
CC(=O)C1=C(O)C(=O)N(Cc2ccccc2)C1c1ccc(Cl)cc1 (stereo not given),-8.4%
COc1cc(OC)c(C2=NOC(C(=O)NCc3cccs3)C2)cc1Cl (stereo not given),-14.8%
CCOc1ccc(C(=O)N(Cc2ccccc2)c2cccc(C)c2)cc1OC,-26.5%
CCC1CCC/C1=N\NC(=O)c1ccccc1C (stereo not given),-20.3%
O=C(C[C@H]1C/C=C\CC[C@H](Cc2ccc(F)cc2)C(=O)OC[C@H]2CCCN2C1=O)N[C@H](CO)Cc1ccccc1,-5.1%
O=C1C2ON(c3ccccc3)C(c3cccnc3)C2C(=O)N1c1ccc(Cl)c(Cl)c1 (stereo not given),2.2%
CC(Sc1c[nH]c2ccccc12)C(=O)O (stereo not given),3.2%
CC(NC(=O)CN1CCN(c2ccc(Cl)cc2)CC1)c1ccccc1 (stereo not given),-2.5%
COc1ccc(CN(C(=O)CN2C(=O)COc3ccccc32)C2CCCC2)c(OC)c1,14.8%
COc1ccc(Br)cc1CN(C)C(=O)Cc1ccc(S(=O)(=O)N2CCOCC2)s1,-13.9%
Cc1c(C)[n+](=O)c(-c2ccc(F)cc2)c(C)n1[O-],1.3%

# A few values from the entries so far:
# Cc1cc(C)n2c(Nc3ccc(C(C)C)cc3)c(-c3ccsc3)nc2n1 in VDR inhibitor shows -2.7%
# CS(=O)(=O)Nc1ccc(-c2n[nH]c(=S)n2-c2ccccc2)cc1 in VDR inhibitor shows 1.4%

# Next entries follow.
SMILES,VDR inhibitor
Cc1cc(C)nc(-n2nc(C)c3c(C(=O)O)cc(-c4cccc(Br)c4)nc32)n1,-3.7%
CCc1ccc2nc3sc(C(=O)O)cc3cc2c1,4.0%
CCOC(=O)N1CCN(C(=O)c2cnn(-c3cccc(F)c3)c2-n2cccc2)CC1,0.7%
Cc1cccc(NC(NC(=O)c2cccnc2)C(Cl)(Cl)Cl)c1 (stereo not given),-19.2%
Cc1ccc(-c2nnn(CC(=O)N(CCN3CCOCC3)C(C(=O)NC3CCCC3)c3ccncc3)n2)o1 (stereo not given),-7.5%
OC(COc1ccc2cc(Br)ccc2c1)CN1CCN(c2ccccn2)CC1 (stereo not given),8.5%
CCOc1ccc(Br)cc1C(=O)N/N=C/c1c[nH]c2ccccc12,6.9%
C/C(=N\Nc1ccc(C#N)cc1[N+](=O)[O-])c1ccc(O)cc1,6.8%
COc1ccccc1NC(=O)Cn1nnc(-c2ccccc2NC(=O)c2cccs2)n1,-13.7%
Cc1n[nH]c(=O)c2c(NC(=O)CSc3nnnn3-c3ccccc3)oc(C)c12,-10.5%
COc1ccc2[nH]cc(CCNc3ncncc3-c3ccccc3C(F)(F)F)c2c1,-19.6%
Cc1ccnc(N2C(=O)c3ccccc3C2=O)c1,0.9%
O=C(CN1CCN(c2ccc(O)cc2)CC1)NCC(=O)Nc1ccc(F)c(F)c1F,24.8%
CCOC(=O)C1=C(c2ccccc2)NC(=O)NC1c1cc(OC)c(O)c([N+](=O)[O-])c1 (stereo not given),-14.3%
CCOC(=O)c1nc(N/N=C/c2ccccc2)sc1Br,-5.5%
N#C/C(=C\c1ccccc1)C(=O)NC(=O)Oc1ccccc1,-11.5%
O=C(Nc1ccncc1)c1cccc(S(=O)(=O)N2CCOCC2)c1,-6.5%
CCN(CC)CCCN1C(=O)C(O)=C(C(=O)c2cc3cccc(OC)c3o2)C1c1ccncc1 (stereo not given),6.3%
O=c1oc2ccccc2n1CSc1nc2ccccc2s1,-3.9%
COC(=O)Cc1c(C)nc2nc(-c3ccc(C)cc3)[nH]n2c1=O,17.2%&6.1%
CCCCOc1ccc(C(=O)OC(C)CN(C)C)cc1 (stereo not given),-11.3%
CNC(=O)Cn1c(C)cc(=O)c2cccc(C)c21,-2.1%
Cc1ccc(C(=O)O)cc1S(=O)(=O)N1CCOCC1,-2.5%
COc1ccccc1NC(=O)CCC(=O)c1ccc(-c2ccccc2)cc1,?
Cc1cc(OCCCC(=O)Nc2cccc(-n3cnnn3)c2)ccc1Cl,-6.0%
COc1ccc(/C=C/C(=O)Nc2nc(-c3cccs3)ns2)cc1OC,15.6%
CCCS(=O)(=O)c1ncc(Cl)c(C(=O)N2CCN(c3ccc(OC)cc3)CC2)n1,?
CC(C)C[C@@H](CC(=O)N[C@@H](CCCN)CC(=O)N[C@@H]1CCCC[C@H]1C(=O)N[C@H](CC(=O)N[C@@H](CCC(=O)O)CC(=O)O)CC(C)C)NC(=O)[C@@H]1CNCC[C@H]1N,3.0%
COC(=O)Cc1c(C)c2ccc(OC(C)C)cc2oc1=O,-5.4%
CCOc1ccc(Nc2nc3c(S(=O)(=O)c4ccc(C(C)C)cc4)nnn3c3ccsc23)cc1,14.3%
CCCOC(=O)Nc1sc2c(c1C(N)=O)CCCC2,2.2%
O=C(COc1ccc(Cl)cc1[N+](=O)[O-])N1CCCCCC1,2.0%
CCCCCCSc1cccc(-c2nc3ccc(C)cn3c2NCc2ccccc2)c1,-18.2%
COC(=O)CN1C(c2ccc(OC)cc2)=Nc2ccc(Cl)cc2C1c1ccccc1 (stereo not given),-13.1%
COCCN1C(=O)C(=O)/C(=C(/O)c2ccc(S(=O)(=O)N3CCOCC3)cc2)C1c1ccc(O)cc1 (stereo not given),2.5%
Cc1c(O)ccc2c(CN3CCN(CCO)CC3)cc(=O)oc12,9.8%
COC(C(=O)Nc1ccc(NC(=O)C(OC)c2ccccc2)cc1)c1ccccc1 (stereo not given),-21.3%
CCOc1cccc(C(=O)Nc2ccc3oc(Cc4ccc(Cl)cc4)nc3c2)c1,11.7%
CCOC(=O)c1c2c3c(c(Cl)ccc3[nH]c1=O)C(=O)c1ccccc1-2,4.1%
O=C(CCNS(=O)(=O)c1cccs1)N1CCN(c2cccc(C(F)(F)F)c2)CC1,-3.6%
CC1CCCCN1C(=O)COc1ccc2ccc(=O)oc2c1 (stereo not given),0.1%
C=CCn1c(=O)c(C(=O)Nc2ccccc2S(N)(=O)=O)c(O)c2ccccc21,1.7%
CCC12CN(C(=O)c3ccco3)CC(CC)(CN(C(=O)c3ccco3)C1)C2=O,-9.0%
COc1ccccc1N(CN1C(=O)c2ccccc2C1=O)C(=O)c1cccnc1,-2.7%
COCCNC(=O)CN(C(=O)Cn1nnc2ccccc21)c1ccc(F)c(Cl)c1,12.3%
COc1ccc(C(C(=O)NC2CCCCC2)N(Cc2cccs2)C(=O)Cc2c[nH]c3ccccc23)cc1 (stereo not given),-0.1%
O=C(NCc1ccccc1)C1=C[C@H](c2coc3ccccc3c2=O)C[C@H](OCc2ccc(CO)cc2)O1,-23.1%
O=C(NCC1CCCO1)c1ccc(Cl)c(S(=O)(=O)N2CCCCC2)c1 (stereo not given),10.1%
COc1ccc2c(c1O)-c1ccccc1CCN(C)C2,-9.8%
COc1ccccc1N1CCN(C(=O)Cn2c(=O)n3nc(-c4ccc(C)cc4)nc3c3ccccc32)CC1,6.6%
CCOc1cc(C(=S)N2CCOCC2)ccc1O,79.4µM*
CN(CCC#N)C(=O)Cn1nc(Cc2ccncc2)c2ccccc2c1=O,-18.6%
O=C1c2ccccc2[C@@H]2C[C@H](NC34CC5CC(CC(C5)C3)C4)[C@@H](O)CCN12,0.6%
CC(=O)Nc1ccc(C(=O)OCC(=O)c2ccc(C)c([N+](=O)[O-])c2)cc1,8.5%
COC(=O)[C@H](COC(C)(C)C)NC(=O)O[C@@H]1C(=O)c2cc(Br)ccc2O[C@H]1c1cccc(OC)c1,0.9%
CC(=O)OCc1c(COC(C)=O)[n+](=O)c2ccccc2n1[O-],-3.1%
COc1cccc(CN2CCC(C(=O)N3CCN(Cc4ccc5c(c4)OCO5)CC3)CC2)c1,-25.7%
COc1cc(NC(=O)COCc2cc(-c3ccc4c(c3)OCO4)on2)cc(OC)c1,15.4%
CCOC(=O)N1CCN(C(=O)C2CCN(S(=O)(=O)c3ccc(F)cc3)CC2)CC1,-26.6%
CC(OC(=O)c1ccc2noc(-c3ccccc3)c2c1)C(N)=O (stereo not given),-5.3%
